Bioassay records deposited in PubChem by several laboratories.
RecA splice inh: inhibitors of M. tuberculosis RecA intein splicing; cell-free RecA intein splicing, fluorescence; inhibition, %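 (about 9 µM by stock and volumes)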; 290,000 tested, 0.75% active; AID 2221; in the data active = inhibition above about 30%;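 also: 0% = vehicle wells and 100% = reference inhibitor control wells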
Target sequence (P9WHJ3 whole entry, looked up, canonical isoform): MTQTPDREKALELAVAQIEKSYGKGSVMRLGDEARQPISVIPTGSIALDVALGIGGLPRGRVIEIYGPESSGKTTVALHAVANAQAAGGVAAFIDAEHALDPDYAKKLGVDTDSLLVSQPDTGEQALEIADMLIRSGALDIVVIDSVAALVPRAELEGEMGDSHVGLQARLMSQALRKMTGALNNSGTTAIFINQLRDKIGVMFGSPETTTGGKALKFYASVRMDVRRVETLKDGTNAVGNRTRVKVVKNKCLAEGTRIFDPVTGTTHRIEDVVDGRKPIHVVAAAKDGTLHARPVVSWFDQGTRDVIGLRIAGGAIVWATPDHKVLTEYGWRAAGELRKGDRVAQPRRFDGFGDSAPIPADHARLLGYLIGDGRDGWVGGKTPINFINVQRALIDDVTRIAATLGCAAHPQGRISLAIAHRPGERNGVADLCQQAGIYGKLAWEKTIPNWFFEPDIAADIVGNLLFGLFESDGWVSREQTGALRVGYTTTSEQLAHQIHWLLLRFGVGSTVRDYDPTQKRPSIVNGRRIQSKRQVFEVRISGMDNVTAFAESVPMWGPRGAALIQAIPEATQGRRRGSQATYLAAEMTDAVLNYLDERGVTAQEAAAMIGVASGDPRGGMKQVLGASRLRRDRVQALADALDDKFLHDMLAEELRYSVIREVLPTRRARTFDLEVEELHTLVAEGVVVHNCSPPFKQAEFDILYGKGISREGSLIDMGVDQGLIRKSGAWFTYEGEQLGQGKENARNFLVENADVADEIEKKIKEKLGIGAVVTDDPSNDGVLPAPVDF
Mtb growth: M. tuberculosis H37Rv growth inhibitors, H37Rv strain (AID 1626); 220,000 tested, 0.95% active; inhibition, % at 10 µM; hits with a dose series show IC50 in µM; M. tuberculosis H37Rv growth inhibition; higher % means a stronger effect;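 active = confirmed in a dose series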;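 also: bacteria incubated seven days before Alamar blue readout; 0% = bacteria only wells and 100% = bacteria with antibiotic wells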
Mtb bLac sens: beta-lactam sensitization of Mtb H37Rv; M. tuberculosis H37Rv growth with meropenem, percent inhibition; hits of this screen are not shown here; inhibition, % at 25 µM; 330,000 tested, 0.27% active;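 active = about 74% or more and at least 40 points above the plate without the antibiotic, then above 30% in a dose series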;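 also: growth measured after seven days incubation then overnight dye step; 0% = bacteria only wells and 100% = bacteria with antibiotic; twin plates without the antibiotic show which effects depend on it; some results filed as inactive read as strong as hits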
YopH PTP inh: YopH (Yersinia) phosphatase inhibition; 140,000 tested, 0.16% active; inhibition, %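 (about 10 µM by stock and volumes)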; fluorescence Ex485/Em525; AID 898;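 active = inhibition of 50% or more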;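 also: controls were vehicle for no effect and minimum signal wells for full effect; inactives centre near -20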
Arbovirus inh: blocks arbovirus infection. arbovirus infection cell-based antiviral screen. inhibition, % at 10 µM. 200,000 tested, 0.37% active;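 active = inhibition from about 30%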;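 also: bluetongue infection of BSR cells; cell survival read as ATP light after 72 h; 0% = infected wells without compound and 100% = uninfected wells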
Arbovirus inh repeat: second read-out of Arbovirus inh, no call of its own (marks repeat the call); inhibition, %; measured here: 10K subset replicate screen; many hits read low in the repeat;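 first of two repeat runs on a subset; 0% = infected and 100% = uninfected wells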
An asterisk follows results filed as active; . = no result given. Not all compounds are listed; count on the stated rates, not on these rows.

SMILES	RecA splice inh	Mtb growth	Mtb bLac sens	YopH PTP inh	Arbovirus inh	others
Cc1ccc2cc(C#N)c(SCC(=O)NCC3CCCO3)nc2c1 (stereo unspecified)	-0.7	-1%	8	-34	-5
CC(C)(C)OC(=O)NCCCCCc1nnc(SCc2c(F)cccc2Cl)o1	4.6	9%	25	.	.
O=c1c2ccccc2nnn1CCN1CCOCC1	-2.0	1%	-1	.	6
COc1ccc(-n2nc(C(=O)NCC(=O)NCCc3ccc(OC)c(OC)c3)c3ccccc3c2=O)cc1Cl	0.4	.	8	.	.
Cc1ccc(NC(=O)CN(Cc2ccco2)Cc2ccccc2O)cc1C	4.9	.	4	.	.
O=C1CSC(c2ccccc2[N+](=O)[O-])N1CCc1ccccc1 (stereo unspecified)	0.7	10%	4	.	3
O=C1/C(=C/c2cccnc2)SC(=S)N1c1ccc(O)cc1	-0.2	1%	1	.	.
Cc1csc(NC(=O)c2cc(=O)[nH]c3ccc(S(=O)(=O)N4CCOCC4)cc23)n1	-115	-7%	-6	.	1
Cc1ccc(NC(=O)CCC(=O)N/N=C/c2ccccc2O)cc1	-2.4	.	5	.	.
COC(C/C=C/[C@@H](O)[C@@H](C)OCc1ccccc1)OC	-0.6	-11%	-8	.	.
O=C(Oc1ccccc1Cl)c1ccccc1P(=O)(O)O	-2.5	-1%	2	-9	13
Cc1ccc(C)c(NC(=S)N2CCCCCC2)c1	1.1	-7%	2	-39	-4
C/C(=N/NC(=O)c1nnn(-c2nonc2N)c1COc1ccccc1)c1ccccc1	-1.5	.	-2	.	.
C=CCNC(=O)c1onc(CSc2cccc(OC)c2)c1C(=O)NCC=C	-0.2	-2%	-5	.	.
COc1ccccc1CC(=O)NCCc1c[nH]c2ccccc12	3.5	.	-11	.	.
C=C(C)CNC(=S)NNC(=O)c1ccc(Br)cc1	5.4	-8%	1	-21	1
COc1ccc(C2Nc3ccccc3NC3=C2C(=O)CC(C)(C)C3)cc1 (stereo unspecified)	-3.7	.	-4	.	.
CN=CC1=C(O)CC(C)(C)CC1=O	0.5	6%	0	-33	7
O=C(COc1ccc2c(c1)CCC2)N1CCN(c2cccc(C(F)(F)F)c2)CC1	1.1	1%	4	-34	9
CCN1CCN(S(=O)(=O)c2ccc(Cl)c(C(=O)N(C)Cc3cccc(Cl)c3Cl)c2)CC1	-5.3	.	-16	.	.
O=C(N/N=C/c1c(O)n(CCC2=CCCCC2)c(=O)[nH]c1=O)c1ccccc1	6.0	-1%	10	-29	-1
COc1cc(NC(=O)c2c3c(nc4ccccc24)CCC3)cc(OC)c1	-0.7	-7%	-3	-13	-8
CC(C)Oc1ccc(CCC(=O)N/N=C/c2ccc3c(c2)OCO3)cc1	-0.4	.	1	.	.
Cc1ccc(N2C(=O)[C@@H]3[C@H](C2=O)C2CCCN2[C@@H]3C(=O)c2ccccc2)cc1 (stereo partly specified)	.	-10%	5	-35	3
CCc1ccc(NC(=O)C2CCN(C(=O)N3CCOc4ccccc43)CC2)cc1	1.6	.	2	.	.
CCCCN(C(=O)CSCc1c(C)noc1C)c1c(N)n(CCCC)c(=O)[nH]c1=O	0.0	.	-5	.	.
CC1(C)Cc2c(sc3nc4n(c(=O)c23)CCC4)CO1	-0.9	1%	-3	-37	-1
O=C(O)c1cc(S(=O)(=O)N(Cc2ccccc2)c2ccc(Cl)cc2)ccc1Cl	2.9	.	-7	.	.
Cc1c(C(=O)NC2=NCCS2)cccc1[N+](=O)[O-]	-1.8	.	-1	.	.
CCc1cc2cc(C)ccc2nc1SCC(=O)N1CCN(C(=O)c2ccco2)CC1	.	12%	8	-30	3
COc1ccc(CCNC(=O)c2noc(C(C)C)c2[N+](=O)[O-])cc1OC	0.5	.	3	.	.
CCOC(=O)C1(C)/C(=N/Nc2ccc(S(N)(=O)=O)cc2)C(=O)C(=O)N1c1ccccc1 (stereo unspecified)	-2.3	3%	-1	.	-2
CCC(C)NC(=O)CSc1nnc(-c2cc(-c3ccc(C)cc3)nc3ccccc23)n1N (stereo unspecified)	-0.8	-6%	-6	9	-3
C=CCOc1ccc(CNCCO)cc1OCC	-0.6	4%	-3	-25	4
CC(=O)Oc1ccc2c(=O)oc(-c3ccccc3C)nc2c1	33*	.	43	.	.
CC1C(=O)CCCCCCCCCC2C1(N1CCOCC1)CS2(=O)=O (stereo unspecified)	1.1	-5%	1	-1	14
COc1cccc(OCCOCCNCCO)c1	-0.6	-2%	-11	-47	-1
N#Cc1ccc(/C=C2\CCCCn3c2nc2cc(C(=O)O)ccc2c3=O)cc1	-1.2	.	6	.	.
CC1=CC(=O)C(C(C)C)=C/C1=N/OC(=O)c1cccc([N+](=O)[O-])c1	.	-9%	1	-43	7
COc1cc(OC)c(C2C(C#N)=C(C)NC(C)=C2C#N)c(C(=O)O)c1	0.1	-10%	-6	.	.
CC(C)(C)c1nc(SCC(=O)NNC(=O)c2ccccc2)c2ccccc2n1	4.9	.	1	.	.
O=C1CC(c2ccsc2)c2cc3c(cc2N1)OCCO3 (stereo unspecified)	0.8	-4%	-1	-5	-11
COc1ccccc1C1C2=C(N=C3SCC(=O)N31)c1ccccc1CC2 (stereo unspecified)	.	-11%	2	-38	3
COc1ccc(NC(=O)CN(c2cc(C)cc(C)c2)S(=O)(=O)c2c(C)noc2C)cc1	.	-11%	1	-30	3	Arbovirus inh repeat=0
Cc1cc(=O)oc2c(C)c(OCC(=O)c3ccccc3)ccc12	0.6	.	2	.	.
COc1ccc(CNC(=O)C2CCCN(C(=O)Nc3ccc(OC)cc3)C2)cc1 (stereo unspecified)	1.7	.	-3	.	.
COc1ccccc1NC(=O)CCSc1nc(C)cc(C)n1	0.4	-2%	-6	.	-6
COc1ccc(/C=C(\NC(=O)c2ccc(C)cc2)C(=O)NCCCn2ccnc2)cc1OC	-4.8	.	1	.	.
COc1ccc(N2CCN(C(=O)c3ccc(SC)cc3OC)CC2)cc1	-1.3	8%	10	.	7
COc1ccc(CCNC(=O)CC2SC(=NCc3ccccc3OC)NC2=O)cc1 (stereo unspecified)	-0.9	3%	0	.	20
COc1ccc(/C=C/c2c(-c3ccc(OC)cc3)oc3ccc(-c4ccc(OC)cc4)cc23)cc1	-37	.	7	.	.
CCC(=O)Nc1cccc(-c2nnc(-c3ccccc3)o2)c1	-1.5	.	-3	.	.
CC(C)CNC(=O)c1ccccc1NC(=O)c1ccccc1N(C)S(C)(=O)=O	-0.4	2%	1	-11	2
O=C(NC(=S)Nc1cc(S(=O)(=O)N2CCOCC2)ccc1N1CCOCC1)C1CCCC1	0.7	6%	-7	.	-3
CN(C)CCNS(=O)(=O)c1ccc2c3c(cccc13)C(=O)N2	-49	.	2	.	.
CCOC(=O)c1c(C2CC2)csc1NC(C)=O	3.7	-6%	1	3	-8
CC(C)(C)OC(=O)N[C@H](Cc1ccccc1)C(=O)N1CCC[C@@H]1C(=O)O	6.4	.	-4	.	.
C=CCNC(=O)C1CCC(C(=O)NCC=C)CC1 (stereo unspecified)	-1.5	3%	-2	.	9
CSc1c(-c2ccccn2)c(N)nn1C(=O)C1CCC1	1.5	5%	-3	.	.
COc1cccc(C(C(=O)NC2CCCCC2)N(CCN2CCOCC2)C(=O)C2COc3ccccc3O2)c1 (stereo unspecified)	0.2	6%	-3	.	5

Overlap with the part before: seven entries, followed by the next part.
SMILES	RecA splice inh	Mtb growth	Mtb bLac sens	YopH PTP inh	Arbovirus inh	others
O=C(NC(=S)Nc1cc(S(=O)(=O)N2CCOCC2)ccc1N1CCOCC1)C1CCCC1	0.7	6%	-7	.	-3
CN(C)CCNS(=O)(=O)c1ccc2c3c(cccc13)C(=O)N2	-49	.	2	.	.
CCOC(=O)c1c(C2CC2)csc1NC(C)=O	3.7	-6%	1	3	-8
CC(C)(C)OC(=O)N[C@H](Cc1ccccc1)C(=O)N1CCC[C@@H]1C(=O)O	6.4	.	-4	.	.
C=CCNC(=O)C1CCC(C(=O)NCC=C)CC1 (stereo unspecified)	-1.5	3%	-2	.	9
CSc1c(-c2ccccn2)c(N)nn1C(=O)C1CCC1	1.5	5%	-3	.	.
COc1cccc(C(C(=O)NC2CCCCC2)N(CCN2CCOCC2)C(=O)C2COc3ccccc3O2)c1 (stereo unspecified)	0.2	6%	-3	.	5
COc1ccc(C2CC(c3ccccc3)=NN2C(=O)CSc2nnnn2-c2cccc(C)c2)cc1 (stereo unspecified)	1.0	.	-1	.	.
CSc1nc(C)c(Cc2ccccc2)c(=O)[nH]1	0.4	1%	-1	.	0
COC(=O)c1ccccc1NC(=O)CSc1nnnn1CC(=O)O	1.2	.	-4	.	.
CN(C)c1ccc2c3c(ccc(N(C)C)c13)COC2	-3.2	0%	-3	.	4
CC(C)Cn1c(NCCO)nc2ccccc21	-5.9	-12%	-4	-17	10
CC(C)Cc1nc2oc3c(N4CCN(CCO)CC4)ncnc3c2c2c1CCCC2	-5.8	13%	95	-4	-33
COC(=O)c1sccc1NC(=S)Nc1ccc(C)cc1	-1.8	0%	-3	.	.
O=C(O)c1ccc(/C=C2\COc3ccccc3C2=O)cc1	1.5	.	74	.	.
Cc1noc(C)c1C(=O)N1CCC(CO)(Cc2ccccc2)CC1	-0.5	3%	-5	.	0
CCOc1ccc(NC(=O)Nc2cnccn2)cc1	1.7	69%	9	.	7
O=C(CSc1nc2ccccc2s1)NC1CCCc2ccccc21 (stereo unspecified)	1.3	3%	7	-20	2
Cc1ccc(NC(=O)CC2S/C(=N/c3nccs3)N(C)C2=O)c(C)c1 (stereo unspecified)	-5.0	17%	0	-17	2
COc1ccc(/C=C2\SC(=O)N(CCC(=O)Nc3ccc(S(=O)(=O)Nc4nccs4)cc3)C2=O)cc1	-2.8	.	-4	-22	-4
CCOC(=O)C1CCN(c2c(NCCCN3CCCCC3)c(=O)c2=O)CC1	-0.5	-18%	-6	.	.
COC(=O)c1ccccc1N(C)S(C)(=O)=O	-2.6	1%	-5	33	5
O=C1NCC(COc2ccc([N+](=O)[O-])cc2)O1 (stereo unspecified)	0.2	.	5	.	.
CS(=O)(=O)N(CC(=O)N1CCN(c2cccc(Cl)c2)CC1)c1cccc(F)c1	2.1	-5%	-6	-4	9
O=P(OC1CCCCC1)(OC1CCCCC1)C(O)c1ccc(Cl)cc1Cl (stereo unspecified)	0.3	-4%	0	-22	4
CCc1c(C)nc(N)nc1N1N=C1SC(C(C)=O)C(C)=O	-3.2	1%	0	.	8
O=C(Nc1ccncc1)c1ccccc1-c1ccccc1	-2.2	5%	1	.	2
O=C(Nc1nc2c(s1)CN(Cc1ccccc1)CC2)c1cccc(S(=O)(=O)N2CCc3ccccc32)c1	-22	14%	58	-160	-17
Cc1ccc(C(C2=C(O)CC(C)(C)CC2=O)C2C(=O)CC(C)(C)CC2=O)o1 (stereo unspecified)	-0.5	-1%	58	-34	0
O=C(CSc1nnnn1-c1ccc(Cl)cc1)N1CCc2ccccc2C1	8.4	4%	-4	-3	9
O=C(O)c1ccc(S(=O)(=O)c2ccc3c(c2)C(=O)N(Cc2ccco2)C3=O)cc1	3.7	-14%	-11	-32	-4
Cc1ccc(CSc2ccc3nnc(-c4cccnc4)n3n2)cc1	4.1	8%	74	-23	-10
COc1ccc(N2C(=O)CSC23CCCCC3)cc1	.	-13%	-5	-30	0
O=C1c2ccccc2C(O)N1Cc1ccco1 (stereo unspecified)	-1.4	1%	0	-16	1	Arbovirus inh repeat=8
CC(=O)c1sc2nc(-c3cccs3)cc(C(F)(F)F)c2c1N	-3.9	-13%	12	-20	6
Cc1cc(NC(=O)CSc2n[nH]c(CC(C)C)n2)no1	.	0%	-16	-39	11

Structures shown so far that have a CF3 group (two):
SMILES	RecA splice inh	Mtb growth	Mtb bLac sens	YopH PTP inh	Arbovirus inh	others
O=C(COc1ccc2c(c1)CCC2)N1CCN(c2cccc(C(F)(F)F)c2)CC1	1.1	1%	4	-34	9
CC(=O)c1sc2nc(-c3cccs3)cc(C(F)(F)F)c2c1N	-3.9	-13%	12	-20	6

An excerpt from above in order of SMILES length, falling.
SMILES	RecA splice inh	Mtb growth	Mtb bLac sens	YopH PTP inh	Arbovirus inh	others
CS(=O)(=O)N(CC(=O)N1CCN(c2cccc(Cl)c2)CC1)c1cccc(F)c1	2.1	-5%	-6	-4	9
O=C1CSC(c2ccccc2[N+](=O)[O-])N1CCc1ccccc1 (stereo unspecified)	0.7	10%	4	.	3
CC1C(=O)CCCCCCCCCC2C1(N1CCOCC1)CS2(=O)=O (stereo unspecified)	1.1	-5%	1	-1	14
CCc1c(C)nc(N)nc1N1N=C1SC(C(C)=O)C(C)=O	-3.2	1%	0	.	8
CC1(C)Cc2c(sc3nc4n(c(=O)c23)CCC4)CO1	-0.9	1%	-3	-37	-1
O=C1NCC(COc2ccc([N+](=O)[O-])cc2)O1 (stereo unspecified)	0.2	.	5	.	.
